NPR1 antag: human Npr1 receptor antagonism | P16066 | HEK293 hNpr1 GloSensor cGMP, ANP-stimulated luminescence | Potency, µM (highest dose often 46.3 µM), for the others: at the highest dose activity change, negative = inhibition, actives largely listed as inhibitors | 1.6% of 76,000 active | AID 1347048; active = well fitted inhibition curve with a large enough effect; inconclusive = small, poorly fitted or top-dose-only effect; inactive = no such curve, though single readings can be large or run the other way;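 further: nearly all actives have a fitted effect of over 60% in size; nearly all hits also lower the signal before the agonist is added; a reference antagonist and vehicle were the controls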
Target sequence (P16066 whole entry, looked up): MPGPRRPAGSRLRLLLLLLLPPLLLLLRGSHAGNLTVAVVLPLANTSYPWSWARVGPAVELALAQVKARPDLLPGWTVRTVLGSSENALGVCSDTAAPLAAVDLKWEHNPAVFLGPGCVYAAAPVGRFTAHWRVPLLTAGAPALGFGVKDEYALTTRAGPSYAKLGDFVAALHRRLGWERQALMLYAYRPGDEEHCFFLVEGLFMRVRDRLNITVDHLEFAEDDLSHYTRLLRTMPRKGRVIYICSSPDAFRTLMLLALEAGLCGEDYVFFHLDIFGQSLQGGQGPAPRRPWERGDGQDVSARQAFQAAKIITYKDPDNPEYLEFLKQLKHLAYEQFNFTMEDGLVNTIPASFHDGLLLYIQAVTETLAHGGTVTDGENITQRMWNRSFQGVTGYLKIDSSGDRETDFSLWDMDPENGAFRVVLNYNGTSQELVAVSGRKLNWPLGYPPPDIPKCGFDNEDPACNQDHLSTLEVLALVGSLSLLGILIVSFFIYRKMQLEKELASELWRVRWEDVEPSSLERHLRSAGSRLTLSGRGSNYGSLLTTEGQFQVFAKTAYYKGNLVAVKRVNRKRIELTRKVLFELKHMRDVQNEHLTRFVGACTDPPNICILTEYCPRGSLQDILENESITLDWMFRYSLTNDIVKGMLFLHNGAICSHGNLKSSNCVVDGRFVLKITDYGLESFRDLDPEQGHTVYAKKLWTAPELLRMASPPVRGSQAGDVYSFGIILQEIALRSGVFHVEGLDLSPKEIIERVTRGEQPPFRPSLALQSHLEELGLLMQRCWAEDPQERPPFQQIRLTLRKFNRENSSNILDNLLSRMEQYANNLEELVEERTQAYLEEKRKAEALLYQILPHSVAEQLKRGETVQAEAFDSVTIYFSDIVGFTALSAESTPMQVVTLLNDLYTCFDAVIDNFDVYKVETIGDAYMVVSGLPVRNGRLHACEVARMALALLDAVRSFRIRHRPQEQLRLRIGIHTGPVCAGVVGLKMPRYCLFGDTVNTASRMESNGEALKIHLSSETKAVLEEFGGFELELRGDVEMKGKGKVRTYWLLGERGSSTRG
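Compound pre-incubated 30 min at room temperature on GloSensor-loaded HEK293 cells stably carrying hNpr1 and the pGS-40F cGMP biosensor. Stimulation uses hNppA at 0.1 nM final; luminescence is taken at baseline and 20 min post-agonist.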
* = called active by the depositor; ? = inconclusive; [ ] = dose if it differs, or a comment. On the % scale 0 is the no-effect control and ±100 the full control effect; potency means the concentration at half of the fitted maximal effect.

NPR1 antag	SMILES
-1%	CC1(c2ccccc2)N(Cc2ccccc2F)C(=O)OC12CCN(Cc1cccnc1)CC2 (configuration not stated)
-1%[70.6 µM]	CN(C(=O)c1ccc(F)cc1)C1CCCc2ccccc21 (configuration not stated)
35%[activator][70.6 µM]	CN(C(=O)Cc1ccccn1)C1CCc2ccccc21 (configuration not stated)
3%	COC(=O)CNC(=O)N1CCC(Oc2ncccc2C(=O)N2CCOCC2)C1 (configuration not stated)
1%	O=c1n(-c2ccc(C(F)(F)F)cc2)nc2n1CCN(Cc1ccccc1)C2
1%	Cc1ccc(C(=O)N2CCn3c(nnc3[C@@H]3C[C@@H](O)CN3C(C)C)C2)cn1
-1%	O=S(=O)(c1cnc[nH]1)N1CCC(c2nc(CCOCC3CC3)no2)C1 (configuration not stated)
?	C[S+](=O)([O-])N1CC2(Cc3ccccc31)CN(C(=O)Cc1cccc(Cl)c1)C2
5%	O=C([C@H]1C[C@H](Oc2cccnc2)CN1S(=O)(=O)c1ccccc1)N1CCOCC1
2%	O=C(CNC(=O)c1cnccn1)NC1CCCc2c1[nH]c1ccccc21 (configuration not stated)

Next section
NPR1 antag	SMILES
4%	OC1(CN2CCCCC2)CCN(Cc2cnc(-c3ccccn3)nc2)C1 (configuration not stated)
-1%	NCCn1cc(C(=O)NCC(O)CN2CCCCCC2)nn1 (configuration not stated)
2%	COc1ccc(N2CC(c3noc(-c4cccc(C)c4)n3)CC2=O)cc1 (configuration not stated)
4%	CC(=O)N1CC(CO)C2(CCN(C3CCOCC3)CC2)C1 (configuration not stated)
0%	COc1ccc(CNC(=O)N2CCCC(Cc3nncn3Cc3ccccc3)C2)cc1 (configuration not stated)
-6%[70.6 µM]	COc1ccc(-c2[nH]nc3ncc(-c4ccc([S+](C)(=O)[O-])cc4)nc23)cc1F
6%[70.6 µM]	CCCCN1C(=O)[C@@H]2C[C@@H](O)CN2C2(CN(CC(C)C)C2)C1=O
-2%	CNC(=O)[C@@H]1C[C@@H](O)CN1C1CCN(C(=O)Cc2cccc(OC)c2)CC1
-11%	CN(Cc1cccnc1)c1nc2c(c(=O)[nH]1)CCN(Cc1ccc(Cl)c(F)c1)CC2
?	O=c1n(-c2ccncc2)nc2n1CCN(Cc1ccc(OC(F)(F)F)cc1)C2

Look-ups from above:
Entry for CC(=O)N1CC(CO)C2(CCN(C3CCOCC3)CC2)C1 (configuration not stated) in NPR1 antag: 4%
Entry for COc1ccc(-c2[nH]nc3ncc(-c4ccc([S+](C)(=O)[O-])cc4)nc23)cc1F in NPR1 antag: -6%[70.6 µM]
Entry for O=C(CNC(=O)c1cnccn1)NC1CCCc2c1[nH]c1ccccc21 (configuration not stated) in NPR1 antag: 2%
Entry for CC1(c2ccccc2)N(Cc2ccccc2F)C(=O)OC12CCN(Cc1cccnc1)CC2 (configuration not stated) in NPR1 antag: -1%
Entry for Cc1ccc(C(=O)N2CCn3c(nnc3[C@@H]3C[C@@H](O)CN3C(C)C)C2)cn1 in NPR1 antag: 1%
Entry for COc1ccc(CNC(=O)N2CCCC(Cc3nncn3Cc3ccccc3)C2)cc1 (configuration not stated) in NPR1 antag: 0%

Carrying on.
NPR1 antag	SMILES
5%	O=C1CC(c2ccccc2)N(Cc2ccncc2)CCCN(C(=O)COc2ccccc2)CCN1 (configuration not stated)
0%	CCc1noc(-c2cn(C3CCCN(C(=O)c4ccc(C)s4)C3)nn2)n1 (configuration not stated)
-2%	Cc1ccc(NC(=O)Cn2c(-c3ccc(Cl)cc3)nc(C)c(CCO)c2=O)cc1
3%	CN1C(=O)CC[C@]2(C(=O)NCc3cccc(Cl)c3)CCCC[C@@H]12
5%	CCCNC(=O)N1CCCCCCNC(=O)[C@@H]2C[C@@H](c3nc(-c4cccnc4)no3)C[C@@H]21
-5%[70.6 µM]	O=C1CO[C@H]2CCN(Cc3ccccc3F)CC[C@@H]2N1Cc1ccccc1
1%	CC(=O)Nc1ccc(CC(=O)N2CCC3(CCC(=O)N(Cc4ccccc4)CC3)CC2)cc1
?	O=S(=O)(Cc1ccccc1)NC[C@H]1COCc2nc3cccnc3n21
1%	Cc1cccc(C(=O)N2CCC3(CC2)CC(c2ccccc2)CN(C)C3)n1 (configuration not stated)
?	CC1(CCCCc2ccccc2)COc2ccc(C(=O)N3CCOCC3)cc2N1 (configuration not stated)

Further structures
NPR1 antag	SMILES
-8%[70.6 µM]	O=C(CN1Cc2nc(-c3ccsc3)ccc2OCC1=O)N1CCCC1
-2%	O[C@]1(c2ccccc2)CCN(Cc2ccco2)C[C@H]1N1CCCC1
-6%	CCc1cccc(NC(=O)N2CCc3c(nc(-c4ccc(OC)cc4)[nH]c3=O)C2)c1
1%	COCCNC(=O)C1COC2(CCN(C(=O)c3ccccc3F)CC2)N1C(=O)c1cccc(OC)c1 (configuration not stated)
3%	O=C1CCCN1CCCN1C(=O)[C@@H]2C[C@@H](O)CN2C2(CN(C3Cc4ccccc4C3)C2)C1=O
-13%	COc1ccc2[nH]cc(CCNC(=O)C3Cn4cccc4C(=O)N3Cc3ccccc3)c2c1 (configuration not stated)
-2%	CNC(=O)c1cc[nH]c1C1CCCN(C(=O)c2cc(C)n(CCOC)c2C)C1 (configuration not stated)
0%	CNC(=O)N1CCC(n2c(C)cnc2C2CC2)CC1
6%	O=C1NCCC[C@@H]1NC(=O)[C@@H]1CN(C(=O)CS(=O)(=O)c2ccccc2)CCN1C(=O)c1ccccc1
-1%	CCCn1c(C)c(CC(=O)N(CC)Cc2noc(C)n2)c2c1CC(C)(C)CC2=O

4 entries out of the list, sorted by molar mass, rising.
NPR1 antag	SMILES
-2%	O[C@]1(c2ccccc2)CCN(Cc2ccco2)C[C@H]1N1CCCC1
-8%[70.6 µM]	O=C(CN1Cc2nc(-c3ccsc3)ccc2OCC1=O)N1CCCC1
3%	O=C1CCCN1CCCN1C(=O)[C@@H]2C[C@@H](O)CN2C2(CN(C3Cc4ccccc4C3)C2)C1=O
6%	O=C1NCCC[C@@H]1NC(=O)[C@@H]1CN(C(=O)CS(=O)(=O)c2ccccc2)CCN1C(=O)c1ccccc1

Additional structures.
NPR1 antag	SMILES
1%	CN1CCC(NC[C@H]2O[C@@H](CO)[C@@H](O)[C@H]2N2CCOCC2)CC1
9%	COc1cccc(CN2C(=O)OC3(CCN(C(=O)Cc4ccccn4)CC3)C2(C)c2cccnc2)c1 (configuration not stated)
0%	COc1ccc(C2(C(=O)N3CCCC3c3nc(C4CCOCC4)no3)CC2)cc1 (configuration not stated)
5%	CO[C@H]1[C@H](NC(=O)Cc2c[nH]c3ccccc23)c2ccccc2C12CCNCC2
-2%	CC1=NS(=O)(=O)N(Cc2ccccc2F)C=C1C(=O)O
-4%	Cc1noc(-c2cccn3c(CNC(=O)c4cc(F)cc(F)c4)nnc23)n1
3%	Cc1[nH]c(-c2ccccc2)nc1C(=O)N1CCN(c2ccccc2C#N)C(=O)C1
0%[70.6 µM]	O=c1[nH]ccn1C1CCN(Cc2cccc3ccccc23)CC1
22µM*	COc1cccc(NC(=O)c2ccc3c(c2)NC(C)(COc2cccnc2)CO3)c1 (configuration not stated)
10%	O=C1CC(c2ccccc2)N(C(=O)CNC(=O)NC2CCCCC2)CCCCCN1 (configuration not stated)

Next section; the last 2 above are carried over.
NPR1 antag	SMILES
22µM*	COc1cccc(NC(=O)c2ccc3c(c2)NC(C)(COc2cccnc2)CO3)c1 (configuration not stated)
10%	O=C1CC(c2ccccc2)N(C(=O)CNC(=O)NC2CCCCC2)CCCCCN1 (configuration not stated)
-4%[70.6 µM]	COc1ccc(CN2CC3(COCC2=O)CN(c2ccc(C(F)(F)F)cn2)C3)cc1F
-1%	O=C(CN1C(=O)NC2(CCCCC2)C1=O)NCCCc1ccccc1
-17%	CCC1=C(C(=O)OC)C(c2ccccc2)N2C(CC(=O)NCC3CCCO3)=CSC2=N1 (configuration not stated)
12%	CS(=O)(=O)N1CCC(C2CCN(C(=O)C3CC=CC3)C2)CC1 (configuration not stated)
-22%	COc1ccc([C@H](C)NC(=O)c2c(C)noc2-c2cccs2)cc1
1%	CCOc1ccc(NC(=O)N2c3ccccc3CC2c2noc(C3CCOCC3)n2)cc1 (configuration not stated)
-3%[70.6 µM]	OCCc1ccc(Nc2cnc3ccc(-c4cccc(CO)c4)nn23)cc1
-8%[70.6 µM]	CS(=O)(=O)NC[C@H]1Cn2c(-c3ccc4c(c3)OCCO4)cnc2CO1
0%	COc1ccccc1OCc1cc(C(=O)N2CCC(NC(C)=O)CC2)n[nH]1
2%[70.6 µM]	COc1cccc(-c2cccc(COc3cnc4c(ccn4CC(=O)O)c3)c2)c1F

The results go on:
NPR1 antag	SMILES
-2%	COc1ccc(C(=O)N2CCCC(n3cc(-c4noc(C)n4)nn3)C2)cc1 (configuration not stated)
1%	COc1ccc(CN2C(=O)COC[C@H]2C(=O)NCc2ccc(F)cc2F)cc1
4%	O=C(CC1CCCN(c2cnn(CC3CC3)c(=O)c2)C1)NCCc1cccs1 (configuration not stated)
?	O=C(c1ccncc1)N1CC2CCC(C1)N2Cc1ccc(-c2cccnc2)cc1
2%	O=C(CCC1CCCC1)NC1CCN(C(=O)N2CC3CC(C2)[C@H]2CCCC(=O)N2C3)CC1 (some centres not stated)
-29%	COc1ccc(OC)c(CN2CCC3(CC2)OC(=O)N(Cc2ccccc2C#N)C3(C)c2ccccc2)c1 (configuration not stated)
1%[70.6 µM]	COc1cccc(Nc2nc(-c3c(C)noc3C)cc3cc(CN(C)C)oc23)c1
0%	CN(C)C[C@@H]1CN(S(C)(=O)=O)C[C@H]1NC(=O)CCc1c[nH]c2ccccc12
-1%[70.6 µM]	COc1ccc(-c2cnc([C@@H]3COCCN3Cc3csnn3)[nH]2)cc1
2%	COCC(=O)NC[C@H]1O[C@@H](CO)[C@@H](O)[C@H]1N1CCN(c2ccccc2OC)CC1

Remaining list, next part
NPR1 antag	SMILES
?	c1ccc(-c2ccc(CN[C@H]3CO[C@H]4[C@@H]3OC[C@@H]4n3cc(CC4CCCCC4)nn3)cc2)cc1
-1%	COCc1ccc(C(=O)N[C@@H]2CCOC[C@H]2OCc2ccccc2)s1
-15%	Cc1ccc2cc(CN3C[C@@H](CO)[C@H](c4nc(C)no4)C3)c(=O)[nH]c2c1
0%	CCCNC(=O)N(C1CCOCC1)C1CCN(Cc2cccnc2)CC1
-2%[70.6 µM]	Cc1noc(C)c1-c1cc2cc(CNC(C)C)oc2c(NC2CCN(C)CC2)n1
-1%	O=C(CCc1ccccc1)NCc1nnc2c(-c3nc(C4CC4)no3)cccn12
-4%	Cc1cc(N2CCC3(CCCN(C)C3=O)C2)nc(-c2ccccc2O)n1 (configuration not stated)
-16%	COCCN1C(=O)c2ccccc2C(C(=O)Nc2nc3ccccc3s2)C12CCCCC2 (configuration not stated)
-13%	O=C(NCc1cccs1)c1ccc2c(c1)N(C(=O)c1ccc(F)cc1)CC2
4%	COc1cccc(CC(=O)N[C@@H]2C[C@H](Cn3cc(CN(C)C)nn3)[C@@H](O)[C@H]2O)c1

(list continues)
NPR1 antag	SMILES
2%	CCC(CC)C(=O)N1C[C@@H](CO)[C@H](c2nc(COC)no2)C1
15%	CCN(C)C(C)C(=O)N1CCC(Oc2ccccc2C)(C(=O)O)CC1 (configuration not stated)
-22%	Cc1ccc(-c2noc([C@@H]3C[C@H](NS(=O)(=O)c4ccc5ccccc5c4)CN3C)n2)cc1
1%	O=C(CC1=CCCCC1)NC1CCc2n[nH]c(=O)n2CC1 (configuration not stated)
10%	O=C1CCC2(CCN1CC1CC1)CCN(C(=O)c1cccc(F)c1)CC2
0%[70.6 µM]	Cc1ccc(-c2cn3c(n2)CO[C@@H](CNC(=O)NCc2ccccc2)C3)cc1
3%	CCOc1ccc2c(n1)CCN(C(=O)c1ccncc1)C2
-8%	c1ccc(C2CCCN(CCNc3ncncn3)C2)cc1 (configuration not stated)
-1%	CC(=O)c1cccc(C(=O)N2CCC3(CC2)NC(=O)N(Cc2ccccc2)C3=O)c1
-8%[70.6 µM]	C#CCN(C)C(=O)[C@@H]1CCCN1[C@@H](C(=O)NC)c1ccc(OC)cc1

Following part.
NPR1 antag	SMILES
-5%	Cc1ccccc1-c1ccc(C(=O)NCCCn2ccnc2C(C)C)cn1
0%	COc1ccc(C2Cn3nnc(C(=O)N4CCC(C(=O)Nc5cc(C)cc(C)c5)CC4)c3CO2)cc1 (configuration not stated)
0%[70.6 µM]	COCC1(CNC(=O)c2cccc(OC)c2)C[C@@H](O)[C@@H](O)C1 (some centres not stated)
-17%	CC1=C[C@@H](CNC(=O)C2CCCCC2)[C@H](C(C)C)C[C@H]1CC(=O)N1CCN(c2ccccn2)CC1
6%	CCOCCn1c(=O)n(CC[C@H](O)c2ccccc2)c2cc(C(=O)O)cnc21
6%	CCC(=O)N1CCC(N2CC(OCC3CC3)C23CCOCC3)CC1 (configuration not stated)
-1%	Cc1noc(C)c1CN1C[C@@H]2[C@H](C1)N(CCOc1ccccc1)C(=O)C(C)(C)[S+]2(=O)[O-]
-12%	COCC1CN(C(C)=O)CC12CCN(Cc1c(C)n[nH]c1C)CC2 (configuration not stated)
-30%[70.6 µM]	COc1ccc(CN2C(=O)[C@@H]3C[C@@H](CN3CC3CC3)Oc3ccccc32)cc1
-1%	O=C(NC1CCCCCCC1)C1CCCN(c2cn[nH]c(=O)c2)C1 (configuration not stated)

The list goes on.
NPR1 antag	SMILES
-23%	CCCCCN(CCC(=O)NCCC(C)C)C(=O)c1cc(C)oc1C
-20%	O=C(c1n[nH]c2ccccc12)N1CCC(c2nc(C3CCOCC3)no2)CC1
-7%	CC(C)NC(=O)N1CC(Oc2cccc(-c3nc(-c4ccccc4)no3)c2)C1
-3%	CCC1=C(C(=O)OC)C(c2cccc(OC)c2)N2C(CC(=O)NCC3CCCO3)=CSC2=N1 (configuration not stated)
?	O=C(Cc1c[nH]c2ncc(-c3cccnc3)cc12)NCc1ccccc1

Screening results from PubChem BioAssay.

Not all compounds are listed; the hit share may differ from the screen's.
